# Compound activity from PubChem BioAssay.
# HIV Env fusion = blocks HIV Env-driven cell-cell fusion; HeLa-JRFL Env/CEM21 cell fusion, luciferase; inhibition, % at 12.3 µM; hit rate 1.1% among 360,000;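 active = mean replicate inhibition score of at least 50 and every replicate individually at or above 50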;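 also: 0% = plate neutral controls and 100% = maraviroc near 300 nM; one replicate is shown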
# MT1-MMP act inh = inhibitors of human MT1-MMP activation. GFP/RFP ratio change, % at 20 µM. P50281. hit rate 0.061% among 360,000. HT1080 RFP-PRO-GFP cells, GFP/RFP ratio fluorescence, overnight; percent of plate control window, DMSO zero. AID 651647;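 active = GFP/RFP ratio change of at least 30% with cell ATP level not reduced by more than half and red fluorescence within 50% of control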; also: strong numbers were not always called active
#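 Material: RFP-PRO-GFP reporter HT1080 cells. Dosing: single-point 20 µM compound, 1% DMSO. Controls: DMSO and RFP-L50D-GFP cell wells. Timing: cells overnight before dosing, compound overnight, 37 °C, 5% CO2. Measure: GFP/RFP fluorescence ratio.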
# eIF4H FP inh = inhibitors of RNA binding by human eIF4H; Q15056; eIF4H fluorescence polarization binding assay; inhibition, % at 35 µM; hit rate 0.94% among 290,000; AID 2012;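 active = 50% or more with normal probe brightness, or confirmed in later tests; about a fifth of its hits are not listed in these tables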;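 also: calls also rest on retests at 20 µM and on dose response follow-up; 0% = protein and probe with vehicle and 100% = probe without protein; strong numbers were not always called active; many hits fall short of the cut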
# CSC inhib = blocks cancer stem cells. cancer stem cell-like cells viability, luminescence. inhibition, % at 7.5 µM. hit rate 1.1% among 300,000;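 active = mean at 75% or more and at least half the replicates too; tested in HMLE shEcad cells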;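 also: 0% = median of negative and 100% = median of positive control wells; the first replicate is given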
# Yeast UUG start = yeast start codon fidelity modulation; S. cerevisiae UUG-firefly luciferase reporter, luminescence/redox ratio; activity score, % at 18.7 µM; hit rate 0.13% among 350,000; AID 602363;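 active = replicate mean at a twofold rise or more, about +100% in these data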;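 also: firefly luciferase made from a UUG start codon reports start codon fidelity; reporter light over untreated wells divided by growth signal over untreated wells; some hits fall short of that in this replicate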
# Rce1 inhib = inhibitors of yeast Ras-converting enzyme; Q03530; yeast membranes, quenched prenylated peptide cleavage fluorescence; calls only; hit rate 0.27% among 290,000; AID 2563;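 active = fall in fluorescence gain of 50% or more versus controls, with final raw signal at or below 3038400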;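 also: plate controls were neutral control wells for no effect and wells lacking membranes for full effect; tested at 10 µM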
# Target sequence (Q03530 whole entry, looked up): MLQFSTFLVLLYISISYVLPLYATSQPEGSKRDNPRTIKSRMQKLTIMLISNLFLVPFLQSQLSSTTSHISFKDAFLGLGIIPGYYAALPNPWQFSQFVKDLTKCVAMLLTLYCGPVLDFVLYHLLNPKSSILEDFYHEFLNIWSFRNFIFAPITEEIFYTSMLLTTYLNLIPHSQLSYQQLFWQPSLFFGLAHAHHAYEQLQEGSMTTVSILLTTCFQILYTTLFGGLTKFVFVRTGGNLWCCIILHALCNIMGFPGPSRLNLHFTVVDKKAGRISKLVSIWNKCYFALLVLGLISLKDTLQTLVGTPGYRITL
# PABP polyA inh = PABP-poly(A) binding inhibition | PABP-poly(A) RNA binding, fluorescence polarization | inhibition, % at 35 µM | hit rate 1% among 290,000 | AID 2014;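 active = 50% or more with normal probe brightness, or confirmed in later tests; about a fifth of its hits are not listed in these tables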;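 also: calls also rest on retests at 20 µM and on dose response follow-up; controls were probe without protein and protein plus probe with vehicle; some compounds called inactive have numbers as strong as hits; many hits fall short of the cut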
# Target sequence (P11940 whole entry, looked up): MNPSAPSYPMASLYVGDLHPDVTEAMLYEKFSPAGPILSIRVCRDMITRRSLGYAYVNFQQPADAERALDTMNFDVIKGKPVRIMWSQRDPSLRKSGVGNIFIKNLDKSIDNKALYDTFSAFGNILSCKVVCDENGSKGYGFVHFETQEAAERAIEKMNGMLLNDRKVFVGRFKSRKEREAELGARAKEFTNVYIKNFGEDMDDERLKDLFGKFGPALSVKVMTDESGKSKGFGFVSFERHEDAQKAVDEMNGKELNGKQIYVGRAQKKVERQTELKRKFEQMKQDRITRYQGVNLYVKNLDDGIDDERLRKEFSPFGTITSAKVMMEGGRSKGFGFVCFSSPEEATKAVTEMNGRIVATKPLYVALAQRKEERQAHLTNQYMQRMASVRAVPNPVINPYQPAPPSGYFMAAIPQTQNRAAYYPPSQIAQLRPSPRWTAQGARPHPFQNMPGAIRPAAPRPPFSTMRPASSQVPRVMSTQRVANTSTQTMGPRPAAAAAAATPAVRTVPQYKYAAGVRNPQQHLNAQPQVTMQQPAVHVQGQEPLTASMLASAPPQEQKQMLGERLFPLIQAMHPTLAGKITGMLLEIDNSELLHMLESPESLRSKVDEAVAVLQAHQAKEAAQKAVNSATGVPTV
# eIF4H FP inh retest = also measured in eIF4H FP inh; calls as there; inhibition, %; compound at 20 µM; confirmation average;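 mean of two retest wells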
# PABP polyA inh retest = second read-out of PABP polyA inh, no call of its own (marks repeat the call); inhibition, %; compound at 20 µM; confirmation repeats;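 mean of two retest wells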
# MT1-MMP act inh RFP = second read-out of MT1-MMP act inh, no call of its own (marks repeat the call); RFP signal change, %; measured here: RFP expression control read;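 0 = vehicle wells; hits needed this value within 50% of zero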
# The depositor's hits bear a star; i = inactive; nt = no result given; & = joins results of further samples.
SMILES,HIV Env fusion,MT1-MMP act inh,MT1-MMP act inh RFP,eIF4H FP inh,CSC inhib,Yeast UUG start,Rce1 inhib,PABP polyA inh,others
Clc1ccc2c(c1)c1ccccc1n2CN1CCOCC1,nt,-1,4,0,-4,-30,i,0,
CC(C)c1ccc(C2=C(O)c3ccccc3C(=O)C2=O)cc1,16,13,7,3,46,nt,i,-4,
CCc1ccc(CN2CCC(C(=O)Nc3ccc(-n4nc(C)cc4C)cc3)CC2)o1,6,2,-2,nt,-1,-9,i,nt,
COc1cc(NC(=O)CN2C(=O)C(c3ccccc3)=NC23CCCCCC3)cc(OC)c1,-2,0,1,78,nt,nt,i,-10,eIF4H FP inh retest=5;PABP polyA inh retest=-4
CCOC(=O)N1CCC(N(CCN(C)C)C(=S)Nc2ccccc2Cl)CC1,0,-1,-2,3,-17,-21,i,0,
Cc1ccc(-c2cn3cccnc3n2)cc1NC(=O)c1cccs1,8,4,6,-3,-3,nt,i,1,
CCOC(=O)c1ccoc1CN1CCN(S(=O)(=O)c2ccc(C)c(C)c2)CC1,3,0,2,nt,-34,-8,nt,nt,
CN(CCN1CCOCC1)Cc1nc(-c2ccccc2)no1,-2,-3,0,-3,5,2,i,-7,
Cc1cc(=O)c(C(=O)OC(C)C(=O)NC(N)=O)nn1-c1ccc(Cl)cc1 (stereo not given),-5,-1,2,-6,11,-11,i,-8,
CC(C)(C)c1ccc(-c2n[nH]c(=S)n2-c2ccccc2)cc1,-119,4,-7,9,-25,-47,i,-8,
CC1CCN(c2nc3nonc3nc2N2CCC(C)CC2)CC1,-10,5,-10,4,-16,nt,i,-4,
O=C1NC[C@@H](Cc2cccc3ccccc23)N(CC2(c3ccccc3)CC2)C1=O,-12,-10,-8,2,-8,33,i,0,
COCc1cc(C)nc(SCC[N+](C)(C)CC(=O)Nc2ccccc2)c1C#N,-13,1,6,-2,-23,9,i,13,
Cc1cccc(Cn2c(N3CCN(C)CC3)nc3c2c(=O)n(C)c(=O)n3C)c1,-11,-3,-3,-3,nt,-2,i,-8,
CCOC(=O)N1CCN(C(=O)/C(=C\c2cccs2)NC(=O)c2cccs2)CC1,-10,5,6,6,-8,nt,nt,0,
CCN(Cc1ccccc1)C(=O)c1oc2ccc(C)cc2c1C,0,2,1,4,-3,0,i,7,
Cc1nnc(SCC(=O)N2CCN(S(=O)(=O)c3ccccc3)CC2)s1,-2,-2,0,-5,-10,-5,i,3,
FC(F)(F)c1ccc(CN2CCCCCC2)cc1,nt,-3,-1,-13,-11,nt,i,10,
CCOC(=O)Cc1csc(NC(=O)COc2ccc(N(C)S(=O)(=O)c3ccc(C)cc3)cc2)n1,-72,3,3,-7,-2,-10,i,-3,
O=C(CSc1ncccn1)NC(=O)c1ccccc1,10,1,2,-3,-7,-23,nt,0,
Cc1cccc(C(=O)N/N=C/c2ccncc2)c1,-275,4,2,-10,-11,-8,i,-5,
O=C(Nc1nnc(-c2ccc(F)cc2)o1)c1cccc([N+](=O)[O-])c1,44,4,0,29,62,nt,i,0,
Oc1ccc(Br)cc1-c1n[nH]c(=S)n1Cc1ccccc1,-3,0,-5,-6,-1,-9,i,9,
N#Cc1c(N)nc(SC2CCCCC2=O)c(C#N)c1-c1ccco1 (stereo not given),nt,-1,-9,nt,-2,0,i,nt,
COC(=O)c1cc(S(=O)(=O)NC2CCN(Cc3ccccc3)CC2)cn1C,nt,-1,-1,-2,-8,-11,i,-3,
O=C(Nc1ccccn1)c1ccc2c(c1)OCCO2,1,5,1,4,-7,-46,i,-16,
CCN(Cc1ccccc1)C(=O)c1ccc(CNS(=O)(=O)c2ccc(C)cc2)cc1,15,-4,-6,1,10,nt,i,-2,
CCc1nnc(NC(=O)c2n[nH]c(=O)c3ccccc23)s1,0,2,1,-2,-7,-8,i,-2,
CC(=O)C1=C(O)C(=O)N(c2ccc(Br)cc2)C1c1ccc([N+](=O)[O-])cc1 (stereo not given),12,9,-1,-4,-4,-20,i,-4,
COc1ccccc1-c1nnc(SCc2nc3ccccc3s2)n1C,nt,-7,0,-6,1,-16,i,-1,
O=C(CC1C(=O)NCCN1Cc1ccoc1)NCc1cccc(OC(F)(F)F)c1 (stereo not given),5,-4,-4,-8,-11,-12,i,-22,
CCN(CC)c1ccc(/C=N/NC(=O)c2c(-c3ccccc3)noc2C)cc1,11,2,-4,2,6,-12,nt,4,
O=C1CCCc2cc3c(ccc4ccccc43)cc21,-89,0,-1,nt,nt,-6,nt,nt,
C/C(N=Nc1nc2ccccc2s1)=N\Nc1ccccc1O,36,23,1,2,85*,-34,i,-7,
Nc1nccc(NCCSCc2ccccc2)n1,9,4,-14,nt,nt,13,nt,nt,
O=C1Nc2ccccc2C1=Nc1ccc(S(=O)(=O)Nc2nccs2)cc1,3,2,9,-6,-5,-7,i,11,
O=C(NNc1ncccc1-n1cccc1)c1ccc(Cl)cc1,-2,0,1,8,-1,13,i,0,
Cc1ccc(C(=O)Nc2ccc(Nc3ccccc3)cc2)cc1C,-8,10,-2,nt,nt,11,i,nt,
Cc1ccc(C(=O)OCc2cc3ccccc3[nH]c2=O)cc1,nt,-1,3,-5,30,-3,i,-11,
Cc1ccc(/C(N)=N/OC(=O)CN(C)S(=O)(=O)c2ccc(C)cc2)cc1,19,1,-3,7,5,-17,i,5,
CCOc1ccc(Cn2cc(F)c(=O)[nH]c2=O)cc1,0,6,3,1,-8,-23,i,4,
CCOC(=O)c1c(C)[nH]c(C(=O)COC(=O)C2CC(=O)N(Cc3ccccc3)C2)c1C (stereo not given),i,-1,-4,1,2,-7,i,1,
C#Cc1ccc(NC(=O)C2(C)CCN2C(=O)C2(c3ccccc3)CC2)cc1 (stereo not given),-2,-4,-18,nt,nt,-8,nt,nt,
O=C(NC1=NCCS1)c1cc(-c2ccccc2)nn1-c1ccccc1,-48,7,0,-3,nt,-4,i,-6,
Cc1cccc(CN2CCN(Cc3ccco3)CC2)c1,7,-1,-1,5,-26,4,i,9,
CC1CCN(C(=O)COC(=O)CSc2ccc(C(N)=O)cc2[N+](=O)[O-])CC1,-187,nt,nt,nt,5,nt,i,nt,
Cc1ccc(CN2C(=O)CCC2C(=O)NC2CC2)cc1 (stereo not given),nt,3,7,-2,3,-10,i,0,
CN(C(=O)c1ccc2ccccc2c1)c1ccccn1,-7,-1,0,-12,5,-10,i,-1,
CC(=O)Nc1ccc(SC[C@H](c2ccccc2)N2CCN(CCc3ccccc3)CCC2=O)cc1,-94,nt,nt,0,0,nt,i,5,
O=C(Nc1ccccc1O)c1cc(S(=O)(=O)N2CCOCC2)ccc1Cl,nt,3,1,-5,0,-4,i,-9,
O=C(NCN1CCN(c2ccccc2F)CC1)c1cccnc1,-43,-2,3,11,-9,-18,i,0,
CCN(CC)CC(=O)Nc1sc2c(c1C(=O)c1ccccc1C)CCC2,18,-5,-4,-2,49,-7,i,-2,
CCN1CCN(Cc2ccc(NC(=O)c3ccc(C)c(NC(=O)c4nccn4C)c3)cc2C(F)(F)F)CC1,7,2,0,-6,4,-9,i,4,
Cc1ccc(S(=O)(=O)NC(=O)NCc2ccccc2)cc1,-6,-4,5,-12,-4,-17,i,-9,
COc1ccc(-n2c(O)c(/C=N/n3cnnc3)c3ccccc3c2=O)cc1,nt,-5,2,8,6,-17,i,2,
Cc1ccc(C)c(S(=O)(=O)N2CCCOC2CNC(=O)C(=O)NCc2cccnc2)c1 (stereo not given),-10,2,1,-2,-3,-9,i,9,
CCCCCC(=O)OCc1ccc(C2=CC(=O)CC(C)(C)C2=O)cc1,-187,2,3,nt,nt,7,nt,nt,
O=C(CN(C(=O)Cn1nnc(-c2ccc(F)cc2)n1)c1ccc(F)cc1)NC1CCCC1,-12,-2,-5,10,-6,-10,i,4,
CN(C)C1=NCCN1CCc1cccc(F)c1,25,4,4,13,-10,-2,i,4,
Cc1ccc(CNC(=O)CCC2CCCN(C(=O)CCC(F)(F)F)C2)o1 (stereo not given),11,-1,3,-7,-3,9,i,-4,
# Continued.
SMILES,HIV Env fusion,MT1-MMP act inh,MT1-MMP act inh RFP,eIF4H FP inh,CSC inhib,Yeast UUG start,Rce1 inhib,PABP polyA inh,others
O=C(COC(=O)/C=C/c1ccco1)NCc1ccccc1,0,1,0,14,-2,nt,i,-7,
Cc1ccc2c(C)c(C(=O)NCCc3ccco3)oc2c1C,12,1,1,-8,4,-7,i,-2,
NS(=O)(=O)c1ccc(NC(=S)N2CCCC2)cc1,-42,-1,2,102*,-7,-26,i,28*,eIF4H FP inh retest=104*;PABP polyA inh retest=50*
CC1(C)CC(=O)C2=C(C1)Nc1cc3c(cc1C2c1ccc(F)cc1)OCO3 (stereo not given),15,-8,-9,-12,3,-14,i,-10,
CCN(C(=O)c1ccccc1Cl)c1ccccc1,10,2,5,-7,-1,-36,i,-4,
O=C(NC1CCN(C(=S)NCc2ccco2)CC1)C1CCCCC1,-1,0,3,0,-6,nt,i,6,
CCCCn1nnnc1SCC(=O)Nc1ccc2c(c1)OCCO2,nt,-1,5,5,nt,6,i,9,
c1ccc(CNCCN2CCNCC2)nc1,-48,4,4,-12,2,-16,i,1,
COCCSc1ccccc1C(=O)N1CCCC1,nt,1,-1,-1,nt,0,i,-5,
C=CCN1C(=O)CS/C1=N\S(=O)(=O)c1ccc(Cl)cc1,-20,-12,13,29,-12,nt,i,2,
CN(Cc1nc2ccccc2c(=O)[nH]1)Cc1cc(=O)oc2ccc3ccccc3c12,-6,0,1,0,-15,10,i,-4,
CCn1c(=O)c2c(nc(SCC(=O)N3CCC(C)CC3)n2C)n(C)c1=O,17,-1,-1,5,-16,-12,i,-3,
CC(C)(C)c1n[nH]c2c1CCCC2,-8,2,10,2,-15,nt,i,3,
Cc1cc(C)n2cc(CSc3ccc(Cl)cc3)nc2n1,19,-1,0,8,-1,-20,i,8,
CCCn1nc(C(=O)NC2CCCCCC2)c2ccccc2c1=O,1,5,0,nt,nt,14,nt,nt,

# Some of these compounds in order of heavy-atom count, ascending.
SMILES,HIV Env fusion,MT1-MMP act inh,MT1-MMP act inh RFP,eIF4H FP inh,CSC inhib,Yeast UUG start,Rce1 inhib,PABP polyA inh,others
C=CCN1C(=O)CS/C1=N\S(=O)(=O)c1ccc(Cl)cc1,-20,-12,13,29,-12,nt,i,2,
O=C(COC(=O)/C=C/c1ccco1)NCc1ccccc1,0,1,0,14,-2,nt,i,-7,
CCCCn1nnnc1SCC(=O)Nc1ccc2c(c1)OCCO2,nt,-1,5,5,nt,6,i,9,

# Later entries
SMILES,HIV Env fusion,MT1-MMP act inh,MT1-MMP act inh RFP,eIF4H FP inh,CSC inhib,Yeast UUG start,Rce1 inhib,PABP polyA inh,others
CNc1nnc(SCC(=O)N2c3ccccc3NC(=O)CC2C)s1 (stereo not given),-1,3,3,nt,-11,-39,nt,nt,
C[C@@H]1CN([C@@H](C)CO)C(=O)c2cccc(NC(=O)Nc3ccc4c(c3)OCO4)c2O[C@H]1CN(C)S(=O)(=O)c1cn(C)cn1,24,-2,4,nt,2,-2&-4,nt,nt,
CCCCc1ccc(NC(=O)CSc2nc(=O)n3cc(C)ccc3n2)cc1,4,4,-12,nt,15,nt,i,nt,
CC1C(=O)N(Cc2cn(Cc3ccco3)nn2)CCS(=O)(=O)N1Cc1ccc(-c2cccnc2)cc1 (stereo not given),8,-5,2,nt,nt,-9,nt,nt,
O=C1NC(=Nc2ccccc2)S/C1=C\c1cccnc1,-3,-5,0,-3,-4,nt,i,-2,
CCc1nc2c(OCCOc3ccc(F)cc3)cccn2c1N(C)C(=O)C(C)C,10,0,0,nt,nt,-14,nt,nt,
COc1ccc(N(C(=O)c2ccc(Br)o2)C2C=CS(=O)(=O)C2)c(OC)c1 (stereo not given),-11,2,8,2,-10,-15,i,-11,
OC(c1ccc(Cl)cc1)c1ncc(-c2ccc(Cl)cc2)[nH]1 (stereo not given),34,4,-4,nt,nt,-16,nt,nt,

# Only part of the results is shown; rates above refer to the full screens.
